Screening results deposited in PubChem BioAssay by National Center for Advancing Translational Sciences (NCATS).
GLA inh pH 4.5: blocks human alpha-galactosidase A at pH 4.5; P06280; purified enzyme, 4-MU-alpha-Gal fluorescence, pH 4.5; activity change, negative = inhibition, % at 105 µM; 230,000 tested, under 10 active; AID 1467; inconclusive = small, poorly fitted or top-dose-only inhibition, or a rising curve; inactive = flat fitted curve, though single readings scatter; no compound was filed as active;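 also: 0% = full activity with enzyme and -100% = basal without enzyme; dose as in the result columns while the protocol names 77 µM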
Rango-impB inh: Rango-importin beta binding inhibition; Q14974; Rango CFP/YFP FRET sensor + importin beta, 45 min; Potency, µM (highest dose often 92.2 µM), for inactives: at the highest dose inhibition of complex formation; 340,000 compounds, 0.031% hits; AID 540263; active = rising FRET ratio curve, often small or poorly fitted; inconclusive = mostly compound fluorescence or quenching in the first reads; inactive = flat curves in all reads;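 also: potency is read from the fitted curve at half-maximal effect; 0% = DMSO wells and 100% = buffer wells lacking importin beta; nearly all actives have a fitted effect of over 15% in size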
Target sequence (Q14974 whole entry, looked up): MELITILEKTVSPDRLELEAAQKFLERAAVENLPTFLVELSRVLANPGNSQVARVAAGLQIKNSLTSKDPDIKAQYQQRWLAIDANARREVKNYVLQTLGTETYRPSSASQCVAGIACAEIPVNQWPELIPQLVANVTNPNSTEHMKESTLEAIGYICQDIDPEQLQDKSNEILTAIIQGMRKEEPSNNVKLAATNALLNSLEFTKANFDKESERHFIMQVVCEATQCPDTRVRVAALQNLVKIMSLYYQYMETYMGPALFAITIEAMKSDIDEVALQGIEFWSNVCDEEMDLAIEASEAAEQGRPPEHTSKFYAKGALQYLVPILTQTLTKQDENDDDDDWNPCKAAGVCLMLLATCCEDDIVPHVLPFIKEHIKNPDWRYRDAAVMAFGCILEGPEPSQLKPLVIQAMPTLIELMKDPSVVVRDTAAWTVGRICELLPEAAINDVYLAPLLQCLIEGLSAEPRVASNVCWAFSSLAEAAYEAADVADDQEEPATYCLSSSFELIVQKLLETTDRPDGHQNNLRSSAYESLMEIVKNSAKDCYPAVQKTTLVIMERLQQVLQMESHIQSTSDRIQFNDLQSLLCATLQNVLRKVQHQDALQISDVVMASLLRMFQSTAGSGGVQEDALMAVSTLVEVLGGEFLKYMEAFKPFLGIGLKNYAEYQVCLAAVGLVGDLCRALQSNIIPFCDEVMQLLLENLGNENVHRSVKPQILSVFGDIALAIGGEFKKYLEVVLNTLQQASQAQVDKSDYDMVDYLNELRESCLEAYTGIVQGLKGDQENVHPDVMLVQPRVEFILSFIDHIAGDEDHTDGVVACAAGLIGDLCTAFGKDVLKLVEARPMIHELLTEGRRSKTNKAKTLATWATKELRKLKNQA
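FRET biosensor (snurportin 1 IBB flanked by EYFP and cerulean), 50 nM, with compound 5 min, then 0.125 microM importin beta in PBS, 1 mM DTT, 0.02% Tween-20, 0.1% BSA. CFP/YFP ratio read after 45 min at room temperature; pre-read flags interference.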
miR-21 FLuc: raises the signal of a miR-21 reporter. HeLa miR-21 FLuc reporter, luciferase, 48 h. Potency, µM (series often up to 38.3 µM), for inactives: at the top dose reporter change, positive = more light. 340,000 tested, under 10 active; active = well fitted rising curve with a large enough effect; inconclusive = small, poorly fitted or top-dose-only effect; inactive = no such curve, though single readings can be large or run the other way;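 also: % of control where 0% means no effect; miR-21 action dims this reporter so a rising signal means less miR-21 action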
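HeLa miR-21-FLuc reporter line, endogenous miR-21; 2000 cells/well in DMEM/10% FBS; compound titration up to ~40uM final, 48 h, 37 degree Celsius; luciferase detection reagent, 15 min lysis, CCD luminescence.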
Rango dissoc inh: inhibitors of RanGTP-induced Rango-importin beta complex dissociation; O95149+P62826; Biochemical FRET Rango-importin beta, RanGTP-induced dissociation; Potency, µM (top dose mostly 46.1 µM), for the others: at the highest dose activity change, negative = inhibition; 340,000 compounds, 0.071% hits; AID 540253; active means falling FRET ratio curve, often poorly fitted, with flat reads before Ran was added; inconclusive means other falling curves, or compound fluorescence or quenching; inactive means flat or rising ratio curve;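 also: potency is read from the fitted curve at half-maximal effect; % of control where 0% means no effect; nearly all actives have a fitted effect of over 45% in size; -100% = wells without RanGTP and RCC1; the record marks most hits as doubtful in a second field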
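Compounds preincubate 5 min with complex of recombinant Rango and importin beta in PBS with 1 mM DTT. Ran (0.6 uM) loaded with 2 mM GTP plus 0.2 uM RCC1 starts dissociation; FRET is recorded 45 min later.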
An asterisk follows results filed as active; & = joins results of further samples. Not all compounds are listed (hit frequency here may not be typical).

The first 2 records (preview)
Screening CCOC(=O)c1cccc(-c2ccc(C=O)o2)c1 returned GLA inh pH 4.5 10, Rango-impB inh 0.6%, miR-21 FLuc -49% and Rango dissoc inh -4%.
For O=C(Cn1nnc2ccccc21)Nc1ccc(Cl)cn1 the results were GLA inh pH 4.5 0, Rango-impB inh 0.1%, miR-21 FLuc -10% and Rango dissoc inh -8%.

Main list (from the top)
Screening CCOC(=O)c1cccc(-c2ccc(C=O)o2)c1 returned GLA inh pH 4.5 10, Rango-impB inh 0.6%, miR-21 FLuc -49% and Rango dissoc inh -4%.
For O=C(Cn1nnc2ccccc21)Nc1ccc(Cl)cn1 the results were GLA inh pH 4.5 0, Rango-impB inh 0.1%, miR-21 FLuc -10% and Rango dissoc inh -8%.
Screening COc1ccc(NC(=O)c2ccc(-n3c(C)ccc3C)cc2)c(OC)c1 returned GLA inh pH 4.5 -1, Rango-impB inh -0.9%, miR-21 FLuc 0% and Rango dissoc inh -20%.
`Cc1nc(N2CCC(C(N)=O)CC2)c2c(-c3cccs3)csc2n1` gave GLA inh pH 4.5 8, Rango-impB inh -4.7%, miR-21 FLuc 11% and Rango dissoc inh 2%.
`Cc1cc(C)nc(SCC(=O)NN)n1` gave GLA inh pH 4.5 3, Rango-impB inh 0.8%, miR-21 FLuc -1% and Rango dissoc inh -1%.
For O=C(Nc1ccc(S(=O)(=O)Nc2ncccn2)cc1)c1ccccc1Cl the results were Rango-impB inh -1.6%, miR-21 FLuc -11%&-2% and Rango dissoc inh -15%.
`COc1ccc(CN2CCC(=O)NC2=O)cc1` gave Rango-impB inh -1.5%, miR-21 FLuc -4% and Rango dissoc inh 18%.
Screening COC(=O)c1ccc2c(c1)C(NC(C)=O)CCc1cc(OC)c(OC)c(OC)c1-2 (stereo not given) returned Rango-impB inh 0.1% and Rango dissoc inh 1%.
For O=C(O)CCc1nn2c3ccccc3nc2n(CCN2CCCCC2)c1=O the results were GLA inh pH 4.5 -25, Rango-impB inh 0.1%, miR-21 FLuc -4% and Rango dissoc inh 0%.
For O=c1oc2c3c4c(cc2s1)CCCN4CCC3 the results were GLA inh pH 4.5 -7, Rango-impB inh 4.9%, miR-21 FLuc -5% and Rango dissoc inh 0%.
`C[C@@H]1COC(=O)[C@H](Cc2ccc(F)cc2)CC/C=C/C[C@@H](CC(=O)N[C@@H](CO)Cc2ccccc2)C(=O)N1` gave Rango-impB inh -0.4% and Rango dissoc inh 9%.
Screening O=C(NC1CCCC1)c1cc(Cl)ccc1[N+](=O)[O-] returned GLA inh pH 4.5 -1, Rango-impB inh -0.1%, miR-21 FLuc -9% and Rango dissoc inh 2%.
Screening COc1ccc(Br)cc1CNc1ccc(O)cc1 returned GLA inh pH 4.5 -11, Rango-impB inh -3.6%, miR-21 FLuc 6% and Rango dissoc inh -15%.
`CCCCNC(=O)C1CCN(S(=O)(=O)c2c(C)noc2/C=C\c2ccc(OC)cc2)CC1` gave GLA inh pH 4.5 8, Rango-impB inh 0.9%, miR-21 FLuc -1% and Rango dissoc inh -4%.
For O=C(CCc1c[nH]c2ccccc12)Nc1ncccc1O the results were Rango-impB inh -1.0%, miR-21 FLuc -16% and Rango dissoc inh 12%.

Overlap with the part before: two entries, then new ones.
`CCCCNC(=O)C1CCN(S(=O)(=O)c2c(C)noc2/C=C\c2ccc(OC)cc2)CC1` gave GLA inh pH 4.5 8, Rango-impB inh 0.9%, miR-21 FLuc -1% and Rango dissoc inh -4%.
For O=C(CCc1c[nH]c2ccccc12)Nc1ncccc1O the results were Rango-impB inh -1.0%, miR-21 FLuc -16% and Rango dissoc inh 12%.
Screening O=C(O)c1nc(N2CCCC2)ncc1Cl returned GLA inh pH 4.5 3, Rango-impB inh 3.6%, miR-21 FLuc -7% and Rango dissoc inh -6%.
For CSc1cccc(NC(=O)C2CCN(S(=O)(=O)c3ccc(F)cc3)CC2)c1 the results were GLA inh pH 4.5 -6, Rango-impB inh 1.7%, miR-21 FLuc 25% and Rango dissoc inh -12%.
Screening CCOC(=O)N1CCN(C(=O)Cn2ccc3ccccc3c2=O)CC1 returned GLA inh pH 4.5 -4, Rango-impB inh 3.7%, miR-21 FLuc 0% and Rango dissoc inh 29%.
CC1=NN(C(=O)CSCc2ccccc2)C(O)(c2ccc(Cl)cc2)C1 (stereo not given) was read as GLA inh pH 4.5 2, Rango-impB inh -1.8%, miR-21 FLuc -2% and Rango dissoc inh -23%.
For Cn1c(=O)[nH]c(=O)c2c1nc(CN1CCN(c3cccc(Cl)c3)CC1)n2CCc1ccccc1 the results were GLA inh pH 4.5 -3, Rango-impB inh 2.6%, miR-21 FLuc -10% and Rango dissoc inh 8%.
Cn1c(NC(=O)c2cc(Br)ccc2Cl)cc(=O)n(C)c1=O was read as GLA inh pH 4.5 5, Rango-impB inh 0.8%, miR-21 FLuc -6% and Rango dissoc inh 43%.
For O=C(CCCn1c(=O)c2ccccc2n(Cc2ccccc2)c1=O)NCc1ccco1 the results were GLA inh pH 4.5 1, Rango-impB inh 1.6%, miR-21 FLuc 17% and Rango dissoc inh -16%.
Cc1cc(C)n2nc(C(=O)Nc3nnc(C4CC4)s3)nc2n1 was read as GLA inh pH 4.5 13, Rango-impB inh 1.7%, miR-21 FLuc -1% and Rango dissoc inh -3%.
Cc1ccc(OCCNC(=O)c2cccc(S(=O)(=O)N3CCN(Cc4ccccc4)CC3)c2)cc1 was read as Rango-impB inh 3.2% and Rango dissoc inh 1%.
For CC(C)c1nnc(NC(=O)CCC(=O)N2CCN(c3ccc(F)cc3)CC2)s1 the results were Rango-impB inh 0.3%, miR-21 FLuc -1% and Rango dissoc inh 5%.
O=C(NCc1ccccc1Cl)c1cc(=O)[nH]c2ccccc12 was read as Rango-impB inh -0.6%, miR-21 FLuc -11% and Rango dissoc inh -24%.
Screening c1ccc(C2=NN(c3ccccc3)C(c3ccco3)C2)cc1 (stereo not given) returned GLA inh pH 4.5 -4, Rango-impB inh inconclusive, miR-21 FLuc -7% and Rango dissoc inh -13%.
Screening COc1ccc(NC(=O)c2cc3nc(-c4ccccc4)cc(C)n3n2)cc1OC returned GLA inh pH 4.5 -1, Rango-impB inh -4.2%, miR-21 FLuc -10% and Rango dissoc inh 3%.
Screening Cc1ccc(C(=O)N/N=C\c2ccc(Br)o2)o1 returned GLA inh pH 4.5 12, Rango-impB inh 0.8%, miR-21 FLuc -14% and Rango dissoc inh 11%.
CCCCC(=O)Nc1nnc(/C=C/c2ccc(OC)cc2)s1 was read as Rango-impB inh 0.1%, miR-21 FLuc 3% and Rango dissoc inh 6%.
For Cc1coc2cc3oc(=O)c4c(c3cc12)CCCC4 the results were GLA inh pH 4.5 7, Rango-impB inh -3.4%, miR-21 FLuc 1% and Rango dissoc inh 4%.
For CN(C(=O)c1cccc(NC(=O)Cc2ccc(NC(=O)C3CCCN(C(=O)C4CCCCC4)C3)cc2)c1)C1CCC1 (stereo not given) the results were Rango-impB inh -2.8% and Rango dissoc inh 14%.
For Cc1ccc2c(c1)-c1c(ssc1=S)C(C)(C)N2C(=O)CSC1=NCCS1 the results were GLA inh pH 4.5 -4, Rango-impB inh -1.4%, miR-21 FLuc 2% and Rango dissoc inh 0%.
`CC(C)CNC(=O)CN(C1CCCCC1)S(=O)(=O)c1ccccc1` gave GLA inh pH 4.5 11, Rango-impB inh -0.5%, miR-21 FLuc -5% and Rango dissoc inh -1%.
`COc1ccc(CCC2(C)NC(=O)NC2=O)cc1` (stereo not given) gave GLA inh pH 4.5 13, Rango-impB inh -3.3%, miR-21 FLuc -4% and Rango dissoc inh 19%.
CCCNc1cc(C)oc(=O)c1C(=O)CCC was read as GLA inh pH 4.5 -29, Rango-impB inh -1.2%, miR-21 FLuc -3% and Rango dissoc inh 0%.
`Cc1ccc[n+](-c2[nH]c(=O)sc2/C=N/N=C(\[O-])c2cccnc2)c1` gave Rango-impB inh 4.7%, miR-21 FLuc -1% and Rango dissoc inh -11%.
Screening CCn1cc(C(C)NC(=O)Nc2ccccc2C(=O)OC)c(C)n1 (stereo not given) returned GLA inh pH 4.5 -1, Rango-impB inh -0.3%, miR-21 FLuc -7% and Rango dissoc inh -16%.
COc1ccccc1CNC(=O)CN(C)CC(=O)Nc1ccccc1Br was read as Rango-impB inh -2.0% and Rango dissoc inh -12%.
Screening NS(=O)(=O)c1cccc(NC(=O)COC(=O)COc2ccc3ccccc3c2)c1 returned GLA inh pH 4.5 1, Rango-impB inh 0.3%, miR-21 FLuc -1% and Rango dissoc inh 7%.
S=C(N/N=C/c1ccccc1Cl)Nc1ccccc1 was read as GLA inh pH 4.5 -6, Rango-impB inh 0.4%, miR-21 FLuc -37% and Rango dissoc inh -1%.
For C/C=C(\C)C(=O)O[C@@H]([C@H](O)c1cc2ccc(=O)oc2cc1OC)C(C)(C)O the results were Rango-impB inh -5.1% and Rango dissoc inh -10%.
Screening CC(C)CNc1nnnc2c1sc1nc(N3CCOCC3)c3c(c12)CCCC3 returned GLA inh pH 4.5 -2, Rango-impB inh -2.2%, miR-21 FLuc -11% and Rango dissoc inh -5%.
O=C(CSc1nnc2sc3ccccc3n12)NCc1ccc2c(c1)OCO2 was read as GLA inh pH 4.5 -3, Rango-impB inh -5.3%, miR-21 FLuc -1% and Rango dissoc inh 21%.
Screening Cc1c(NS(=O)(=O)c2cccc(C(=O)N3CCC(C(N)=O)CC3)c2)c(=O)n(-c2ccccc2)n1C returned Rango-impB inh 2.1% and Rango dissoc inh 6%.
`Cc1cc(Cn2nc(-c3ccccc3)cc2C(=O)NCc2cccc(C(F)(F)F)c2)on1` gave Rango-impB inh -3.7% and Rango dissoc inh 19%.
`O=C1Nc2ccc(Br)cc2C1(O)Cc1ccncc1` (stereo not given) gave GLA inh pH 4.5 8, Rango-impB inh 1.9%, miR-21 FLuc -5% and Rango dissoc inh 0%.
CC(=NNC(=S)N1CC2CCC(CC2)C1)c1ccncn1 was read as Rango-impB inh 2.4% and Rango dissoc inh -10%.
For COc1ccc(CN(C)C2CCCCC2)c(C)c1C the results were GLA inh pH 4.5 -6, Rango-impB inh 2.4%, miR-21 FLuc -1% and Rango dissoc inh -8%.
Cc1cc(C(=O)Nc2sc3c(c2C#N)CCC3)no1 was read as GLA inh pH 4.5 -9, Rango-impB inh 0.0%, miR-21 FLuc -4% and Rango dissoc inh 2%.
COc1ccc(Nc2nccc(N(C)C)c2C#N)cc1 was read as GLA inh pH 4.5 5, Rango-impB inh -3.0%, miR-21 FLuc -14% and Rango dissoc inh 8%.
c1cnc(SCCOc2cccc3ccccc23)nc1 was read as GLA inh pH 4.5 1, Rango-impB inh 3.7%, miR-21 FLuc -78% and Rango dissoc inh 0%.
O=C(N/N=C/c1coc2ccccc2c1=O)c1cc(O)cc(O)c1 was read as GLA inh pH 4.5 0, Rango-impB inh -0.3%, miR-21 FLuc 0% and Rango dissoc inh 3%.
For CCOc1ccc(S(=O)(=O)N2CCN(C(=O)CCOc3ccccc3C)CC2)cc1 the results were Rango-impB inh -2.1% and Rango dissoc inh 9%.
`CC(C)CC(=O)N/C(N)=N/c1nc2ccccc2o1` gave GLA inh pH 4.5 -7, Rango-impB inh -1.5%, miR-21 FLuc -30% and Rango dissoc inh 24%.
Screening O=c1cc(-c2ccc(O)cc2)oc2c(O)c(O)c(O)c(O)c12 returned GLA inh pH 4.5 -5, Rango-impB inh -1.5%, miR-21 FLuc -5% and Rango dissoc inh -15%.
Screening Cc1cccn2c(=O)c(C=O)c(N3CCN(C)CC3)nc12 returned Rango-impB inh inconclusive, miR-21 FLuc -8% and Rango dissoc inh -15%.
Cc1ccc(N(CCC#N)C(=O)COC(=O)C2CCN(S(=O)(=O)c3ccc(C)c(C)c3)CC2)cc1 was read as Rango-impB inh 1.5% and Rango dissoc inh 11%.
CC(OC(=O)C1CCN(c2ccc(C(F)(F)F)cn2)CC1)C(=O)NC1CCCCC1C (stereo not given) was read as Rango-impB inh -0.8% and Rango dissoc inh -6%.
